Screening results as filed in PubChem BioAssay.
AID504770: growth inhibitors of E. coli YBA685 in a screen for V. cholerae RctB (chromosome II replication) inhibitors; E. coli YBA685 rctB-dependent plasmid, OD600 growth, 3 h; active compounds read low; z-score (test concentration not listed); 130,000 compounds, 0.27% hits; AID 504770;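 active = z-score under -2 on both plates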;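 note: wells of about 30 µL received 100 nL stock; score is relative to mean and SD of the test wells; the first replicate is given; strong numbers were not always called active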
Ba CapD inh: blocks the Bacillus anthracis CapD enzyme; purified CapD enzyme, fluorescence intensity read-out; active compounds read low; some hits fall short of the stated cut; z-score (no concentration beside the values); 140,000 compounds, 0.23% hits; AID 492967;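 active = z-score under -4 in either of two replicates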;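 note: stock transfer was 100 nL into about 40 µL; score is relative to mean and spread of the plate; one replicate is shown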
Numbers without * were called inactive; i = inactive; / = not tested or not shown. A portion of the library; count on the stated rates, not on these rows.

Sample of the layout:
Fields: AID504770 | Ba CapD inh
CCOC(=O)c1cc(-c2ccc(Cl)cc2)[nH]c1NNC(=O)c1ccccc1
    / | -0.38
COC(=O)C(/C=N/OCc1ccc(Cl)cc1)NC(=O)c1ccccc1 (centres undefined)
    / | -1.2
c1ccc2c(c1)c1ccccc1n2CC1CS1 (centres undefined)
    -0.25 | 4

Results, from the start:
Fields: AID504770 | Ba CapD inh
CCOC(=O)c1cc(-c2ccc(Cl)cc2)[nH]c1NNC(=O)c1ccccc1
    / | -0.38
COC(=O)C(/C=N/OCc1ccc(Cl)cc1)NC(=O)c1ccccc1 (centres undefined)
    / | -1.2
c1ccc2c(c1)c1ccccc1n2CC1CS1 (centres undefined)
    -0.25 | 4
CCN(CCOC)c1nsnc1OC(C)C
    0.15 | /
O=C(CN1C(=O)/C(=C\c2cccc(Cl)c2)Oc2ccccc21)NCC1COc2ccccc2O1 (centres undefined)
    1.5 | -0.04
CCOC(=O)c1nc2ccccc2s1
    0.8 | 6.8
CS(=O)(=O)Nc1ccc(C(=O)CSc2ccc3c(c2)OCCO3)cc1
    -0.45 | /
Cc1ccc(-c2csc3ncnc(NCCO)c23)cc1
    1 | 0.33
COc1ccc(C2Nc3ccccc3C(=O)N2Cc2ccco2)cc1COc1c(C)cccc1C (centres undefined)
    / | 59
Cc1[nH]c2ccccc2c1C(=O)C(C)N1CCN(c2ncc(C(F)(F)F)cc2Cl)CC1 (centres undefined)
    0.95 | /
CCN(Cc1ccccc1)C(=O)c1ccc2c(Cl)c3c(nc2c1)CCCC3
    0.2 | -0.52
COC(=O)c1c(N)c(C#N)c2n1CCCC2
    -1.1 | 0.51
C#CC(CC)(CC)NC(=O)c1ccccc1Br
    -0.6 | /
COc1cc(C2C3=C(CC(C)(C)CC3=O)OC3=C2C(=O)CC(C)(C)C3)c(Br)cc1O
    / | -0.47
O=C(Cn1nnc(N2CCOCC2)n1)c1ccc(Cl)cc1
    -0.7 | 1
CCCCc1c(C)nc(SC)[nH]c1=O
    -0.75 | -0.35
COC(=O)Nc1ccc2c(c1)Nc1ccccc1CC2
    / | 11
COc1cc([N+](=O)[O-])ccc1N=Cc1nc(-c2ccccc2Br)oc1O
    / | -0.22
Cc1ccccc1OCC(O)CN(Cc1ccccc1)Cc1ccco1 (centres undefined)
    -0.45 | /
Cc1ccc(-c2ccc(CCC(=O)O)n2C(C)C)cc1
    1.1 | 11
COc1ccc(NC(=O)CSc2nnc3[nH]c(=O)cc(N)n23)cc1
    0.2 | -1
O=C(CSc1nnc2sc3ccccc3n12)c1ccc2ccccc2c1
    / | -0.015
Clc1ccccc1Nc1nc(-c2ccccc2)cs1
    / | 0.03
CCC1CCCCN1S(=O)(=O)c1ccc(Cl)cc1 (centres undefined)
    -0.3 | -0.015
CN(C)c1nc(OCCNC(=O)COc2ccccc2Cl)nc(N(C)C)n1
    -0.6 | /
Cc1cccc(N=C2CNC(=O)NC2=O)c1
    0.55 | 0.49
CCOC(=O)C1=C(C)NC2=C(C(=O)CC(c3ccc(OC)cc3)C2)C1c1cc(Br)c(O)c(OC)c1 (centres undefined)
    / | 23
COc1cccc(CN2CCC(C(=O)NC(C)C)CC2)c1
    0.85 | 0.02
CCOC(=O)c1c(COC(=O)/C=C/c2ccc(C)o2)nc2ccccc2c1C
    -0.7 | /
Cc1nc2cc(-c3ccccc3)nn2c(C)c1Sc1nccc(-c2cccnc2)n1
    0.2 | 17
COc1ccc(CC(=O)N2CCCC(C)C2)cc1 (centres undefined)
    1 | -0.085
CCCCCCCCCCOC(=O)c1ccc(-c2ccc(-c3ccc(C(=O)OCCCCCCCCCC)cc3)cc2)cc1
    / | 0.31
COc1ccc2oc(=O)c3c(c2c1)CC(C(F)(F)F)S3 (centres undefined)
    -0.2 | 1.5
COc1ccc(/C=C/C(=O)Nc2nnc(-c3ccccc3)s2)cc1OC
    -0.15 | 10
Cc1ccccc1Nc1nc(N)nc(CSCC(=O)NC2CCCc3ccccc32)n1 (centres undefined)
    -0.3 | /
CCC1(C)Cc2ccccc2-c2c1c(=O)n(-c1ccc(C)cc1)c1nnnn21 (centres undefined)
    -0.95 | 3
Cc1cccc(NC(=O)C2COc3ccccc3O2)c1C (centres undefined)
    / | -0.18
COc1ccc(CCNCc2cccn2-c2c(C(=O)O)cnn2-c2ccccc2)c(OC)c1
    -0.2 | -0.8
Cc1cccc(C(=O)Nc2cccc(-c3ccc(N4CCN(C)CC4)nn3)c2)c1
    0.9 | /
CC(Sc1nnc(N)s1)c1nc2ccccc2c(=O)[nH]1 (centres undefined)
    -0.05 | 0.5
CCN(CC)C(=O)c1ccc(COc2ccccc2Cl)o1
    -0.4 | 0.33
NC(=O)N1CCCC1
    0.3 | /
Cc1nnc(SCC(=O)c2cc(C)n(-c3ccc4c(c3)OCO4)c2C)n(N)c1=O
    0.25 | /
N#Cc1c(NC(=O)c2cc3n(n2)C(C(F)(F)F)CC(c2ccccc2)N3)sc2c1CCCC2 (centres undefined)
    / | 30
CCC1=N/C(=C\c2ccc(C)cc2)C(=O)O1
    -0.45 | -2.5
Cc1onc(-c2c(Cl)cccc2Cl)c1C(=O)NN
    / | 0.47
O=S(=O)(c1ccc2c(c1)C(=NO)c1cc(S(=O)(=O)N3CCCC3)ccc1-2)N1CCCC1
    -0.8 | -0.18
O=C1CCCC2=C1C(c1ccc(O)cc1)C1=C(CCCC1=O)O2
    0.25 | 0.55
COc1cc(Cl)c(C)cc1NC(=O)CSc1nc2ccccc2[nH]1
    1.1 | -0.24
CC(C)N(c1ccccc1)c1ccc(NC(=O)COC(=O)C2CC2)cc1
    0.35 | 0.85
COC(=O)C(C)(C)ON1C(=O)c2ccccc2C1=O
    -1 | 0.055
CCOC(=O)c1cnc(S/C=C/C(=O)c2ccc(C)cc2)nc1N
    2.4 | -0.17
COc1ccc2c(C)cc(SCC(=O)Nc3ccccc3)nc2c1
    -0.7 | -0.12
Cc1c(C)c(C)c(S(=O)(=O)/N=C/N(C)C)c(C)c1C
    1.4 | -0.09
CC1CCC/C(=C/c2ccc(Cl)cc2)C1=O (centres undefined)
    0.55 | 16
Cc1ccc(S(=O)(=O)NCCC(=O)N2CCN(Cc3ccccc3)CC2)cc1
    -1 | 5.6
CCOc1ccc2nc(N3CCCC3)sc2c1
    0.4 | /
CCN(C(=O)Cc1c(C(=O)O)[nH]c2ccccc12)c1ccccc1
    -0.25 | -0.095
O=c1[nH]c(O)c(N=Nc2ccc(S(=O)(=O)N3CCCCC3)cc2)c(=O)[nH]1
    0.2 | -0.24
CCn1c(SCC(=O)Nc2ccc(OC)cc2)nnc1C1CC1
    0 | /

(listing goes on)
Fields: AID504770 | Ba CapD inh
O=C(O)CCNS(=O)(=O)c1cccc2nsnc12
    / | -1.7
CC(C)OC(=O)c1ccc(COC(=O)CNC(=O)c2ccco2)cc1
    2.3 | -1.6
CC1CCc2c(sc3ncn4c(=S)[nH]nc4c23)C1 (centres undefined)
    0.7 | -0.43
CCC(SC1=NCCS1)C(=O)Nc1ccc(NC(C)=O)cc1 (centres undefined)
    1.6 | -0.16
O=C(O)CN(CCc1ccccc1)CC(=O)O
    -0.15 | -0.4
COc1ccc(-c2csc(Nc3ccccc3)[n+]2C)cc1
    0.95 | i
Cc1[nH]n(-c2ccccc2)c(=O)c1C=Nc1ccc(O)cc1
    0.3 | 1.5
Cc1nc(C(F)(F)F)ccc1NC(=O)NCCNc1cccc(C(F)(F)F)n1
    1.5 | 34
CCCn1c2ccc(C)cc2c2nnc(SCCN(CC)CC)nc21
    0.7 | -0.045
COc1ccc(N2C(=O)c3ccccc3NC23CCCC3)cc1
    -0.95 | /
CN(C)c1nn(C(=O)Nc2cccc(C(F)(F)F)c2)cc1-c1ccccc1
    / | 7.4
COc1cccc2c1oc(=O)c1c(NC(C)=O)nc3c(c12)CCCC3
    -0.05 | 0.28
Cc1sc(-c2ccncc2)nc1OC(=O)c1cc(Cl)cc(Cl)c1
    / | 0.015
O=C(COc1nnc(SCCS(=O)(=O)c2ccc(F)cc2)n1C1CC1)c1ccc(F)cc1
    -0.2 | 0.18
O=C1CCC(=O)N1c1ccc(-c2nc3scc(-c4cccs4)c3c(=O)o2)cc1
    / | -0.005
O=C1N=c2ccc(Br)cc2=C1c1sc(NS(=O)(=O)c2ccccc2)nc1O
    / | -1.9
CC1CN(C(=O)C(C)N(C)Cc2nc3ccccc3c(=O)[nH]2)CC(C)O1 (centres undefined)
    0.85 | /
CC1=C(C#N)C(c2cccc(O)c2)C2=C(CC(c3ccccc3)CC2=O)N1 (centres undefined)
    -0.1 | /
O=c1[nH]c2ccncc2cc1-c1ccnc(-c2ccccn2)n1
    / | 42
N#Cc1n[nH]nc1-c1ccc(OC(=O)c2ccc(Cl)cc2)cc1
    -0.7 | 0.36
Nc1ccccc1SC1CC(=O)N(c2ccccc2Oc2ccc(Cl)cc2Cl)C1=O (centres undefined)
    / | -0.3
C/C(Nc1ccc(Br)cc1)=C(/C#N)C(N)=O
    -0.75 | 0
O=C(NCc1ccco1)c1ccc(/C=C2\Oc3ccccc3N(Cc3ccccc3F)C2=O)cc1
    0.9 | -1.8
COc1ccc(OC)c(NC(=O)c2ccc(CSc3ncnc4nc[nH]c34)cc2)c1
    -0.3 | -0.51
N#Cc1c(-c2ccccc2)cc(-c2ccccc2)nc1N1CCOCC1
    0 | 4
COC(=O)C1Cc2ccccc2CN1Cc1c(C)n(C)n(-c2ccccc2)c1=O (centres undefined)
    1.2 | /
O=S(=O)(c1ccc(F)c(F)c1)N(c1ccc2c(c1)OCO2)S(=O)(=O)c1ccc(F)c(F)c1
    0.85 | /
N#Cc1c(N)oc(-c2cccs2)c1-c1cccs1
    -0.4 | /
C=CC1CN2CCC1CC2C(OC(=O)c1ccco1)c1ccnc2ccccc12 (centres undefined)
    -0.65 | -1.4
COc1cccc(/C=C/C(=O)OCC(=O)NC2CCCCC2)c1
    -0.3 | 21

Three of the compounds above, field by field:
SMILES: COc1cccc(/C=C/C(=O)OCC(=O)NC2CCCCC2)c1
- AID504770 = -0.3
- Ba CapD inh = 21

SMILES: O=C1N=c2ccc(Br)cc2=C1c1sc(NS(=O)(=O)c2ccccc2)nc1O
- AID504770 = /
- Ba CapD inh = -1.9

SMILES: N#Cc1c(-c2ccccc2)cc(-c2ccccc2)nc1N1CCOCC1
- AID504770 = 0
- Ba CapD inh = 4

Next section.
Fields: AID504770 | Ba CapD inh
CS(=O)(=O)c1ncc(Cl)c(C(=O)NCc2ccccc2)n1
    -0.9 | 0.16
O=C(CN1CCN(c2cccc(Cl)c2)CC1)Nc1nccs1
    -0.85 | /
COc1cc(C2N(Cc3ccccc3)CCCN2Cc2ccccc2)ccc1O
    -1.1 | -0.72
COc1ccc(N2C(=O)NC(=O)/C(=C/c3ccc(N(C)C)c(Br)c3)C2=O)cc1
    / | -1.2
Cc1onc(-c2ccccc2)c1C(=O)Nc1cccc(C(F)(F)F)c1
    -1.4 | /
Cc1c(S(=O)(=O)c2ccc(Cl)cc2)csc1C(=O)O
    / | 0.47
CCOC(=O)Cc1nc(-c2ccc(Cl)cc2)cs1
    -0.25 | 0.05
CCOC(=O)C1=C(O)/C(=C/c2cccc([N+](=O)[O-])c2)SC1=Nc1ccc([N+](=O)[O-])cc1
    / | -0.64
Cc1sc2nc(SCc3ccc(C(=O)NCCO)cc3)nc(N)c2c1C
    -0.7 | 0.18
COC(=O)c1snc(-c2c(Cl)cccc2Cl)c1C(=O)OC
    1.1 | 0.28
CC(C)(C)OC(=O)Nc1ccc(-c2ccn[nH]2)cc1
    -0.2 | 0.15
CCC1OC(=O)[C@H](C)C(=O)[C@H](C)[C@@H](OC2O[C@H](C)C[C@H](N(C)C)[C@H]2O)[C@](C)(OC)C[C@@H](C)C(=O)[C@H](C)[C@H]2N(CCCCn3cnc(-c4cccnc4)c3)C(=O)OC12C (some centres undefined)
    1.4 | /
CCOC(=O)c1ccc(NS(=O)(=O)c2ccc(Cl)cc2)cc1
    / | 0.2
CN1/C(=C\C=Nc2ccccc2N)C(C)(C)c2ccccc21
    -0.6 | /
CC1(C)Cc2ccccc2/C(=C/C(=O)N2CCOCC2)N1
    -0.6 | /
O=S(=O)(c1ccc(Cl)cc1)n1cc2c(n1)CCOC2
    -1.1 | -0.41
CCOC(=O)N1CCC(NC(=O)c2cc3nc(-c4ccc(C)cc4)cc(C(F)(F)F)n3n2)CC1
    / | 0.04
O=c1c(CCc2ccccc2)nnc2c3ccccc3ncn12
    -0.4 | /
O=C(CCN1CCCC1)Nc1nc(-c2ccc(Cl)cc2)cs1
    -1.4 | -0.55
O=c1oc2c(CN3CCCCCC3)c(O)ccc2c2c1CCC2
    / | 44
CCN1CCc2c(sc(N)c2C#N)C1
    -0.85 | 53
COc1cc(C(=O)N[C@H](C(=O)O)C(C)C)cc(OC)c1OC
    -0.25 | /
FC(F)(F)c1cccnc1SCc1ccc(Cl)cc1
    -1 | 9.5
Cc1ccc2c(c1)CCCN2CC(=O)N(c1ccccc1)C1CCCCC1
    0.6 | 0.9
O=C(Nc1ccccc1C(=O)OC1CCCCC1=O)c1ccco1 (centres undefined)
    -0.35 | /
O=c1nc(-c2cccs2)n(-c2ccccc2)[nH]1
    / | 4.1
Cn1c(=O)c2c(nc3n2CC(c2ccc(Br)cc2)=NN3Cc2ccccc2)n(C)c1=O
    / | 0.14
